Insulin prom inh = TRM-6 insulin promoter activity inhibition; TRM-6 cells (human fetal islet line), insulin promoter-eGFP reporter, imaging; reporter expression induced with tamoxifen; inhibition, % at 2 µM; 130,000 compounds, 0.9% hits; AID 1273;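 active = inhibition above the mean plus 3 SD, with well images judged a real hit on visual review, cut at about 60% in these data, passing the limit was not always enough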
HSV replic up = increases HSV replication in cells. 220,000 compounds, 0.005% hits. HSV replication augmentation in cells, fold increase. maximum fold increase;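 active = peak rise of 1.5-fold or more in the series; tested in PC3 cells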;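 note: first round at 10 µM; read as green reporter fluorescence; hits show the peak of a series up to 25 µM; 1 = signal of infected wells without compound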
PKD1 kinase inh = inhibitors of human PKD1 kinase; 200,000 compounds, 0.056% hits; Q15139; PKD1 kinase fluorescence polarization assay; inhibition, %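 (about 10 µM by stock and volumes)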;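 active = inhibition of 50% or more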;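 note: controls were vehicle for no effect and a reference inhibitor for full effect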
Target sequence (Q15139 whole entry, looked up): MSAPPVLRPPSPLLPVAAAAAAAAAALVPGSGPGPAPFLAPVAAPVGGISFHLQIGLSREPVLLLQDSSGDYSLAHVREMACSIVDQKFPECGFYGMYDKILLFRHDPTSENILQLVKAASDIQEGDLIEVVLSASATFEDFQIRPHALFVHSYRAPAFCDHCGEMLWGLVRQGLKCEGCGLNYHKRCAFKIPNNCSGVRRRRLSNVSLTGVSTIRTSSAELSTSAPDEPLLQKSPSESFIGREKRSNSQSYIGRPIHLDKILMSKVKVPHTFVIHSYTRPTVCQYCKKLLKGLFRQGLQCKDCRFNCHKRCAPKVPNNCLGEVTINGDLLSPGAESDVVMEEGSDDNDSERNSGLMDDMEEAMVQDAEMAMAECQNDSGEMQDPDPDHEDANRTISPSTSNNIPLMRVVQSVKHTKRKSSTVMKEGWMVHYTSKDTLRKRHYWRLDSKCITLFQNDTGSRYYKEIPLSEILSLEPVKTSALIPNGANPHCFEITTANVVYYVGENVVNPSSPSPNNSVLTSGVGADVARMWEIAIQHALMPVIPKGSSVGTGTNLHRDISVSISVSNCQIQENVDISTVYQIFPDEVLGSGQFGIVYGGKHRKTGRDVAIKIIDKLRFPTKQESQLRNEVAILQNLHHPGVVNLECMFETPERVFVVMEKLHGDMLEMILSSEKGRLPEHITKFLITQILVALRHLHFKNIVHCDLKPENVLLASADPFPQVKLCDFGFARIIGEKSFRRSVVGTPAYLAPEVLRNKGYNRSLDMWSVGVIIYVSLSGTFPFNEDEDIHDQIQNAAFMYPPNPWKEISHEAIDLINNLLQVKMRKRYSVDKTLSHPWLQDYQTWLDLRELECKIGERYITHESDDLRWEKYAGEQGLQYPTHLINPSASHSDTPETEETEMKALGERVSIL
GALR2 ag = GALR2 (human) receptor agonism; O43603; GALR2-expressing cells, agonist activation read-out; activation, %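 (tested at 5 µM)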; 140,000 compounds, 0.48% hits; AID 803;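 active = above mean plus 3 SD of all compounds, about 5% in these data, not always enough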;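 note: 0% = vehicle buffer wells and 100% = reference agonist at full effect; tested in CHO reporter cells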
RGS16-Gao HTS = RGS16-Galphao interaction regulator (human); bead-based flow cytometry RGS16-Galphao binding, fluorescence; actives lie on both sides; O15492+P09471; binding response (% of control), % at 10 µM; 220,000 compounds, 0.38% hits;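 active = below 25% or above 175%, edge rows of some plates excepted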;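 note: Galphao activated by GDP with aluminum fluoride before binding; 100% = wells without compound and 0% = beads without RGS; some results beyond the cut were filed as inactive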
Insulin prom inh cell count = further read-out of Insulin prom inh, marked with its call; normalized cell count, %; measured here: cell count, toxicity; reference of the scale not given here;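 cells exposed to compound for 48 h; stained nuclei by imaging scaled within each plate; lower means fewer cells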
HSV replic up primary fold = recorded beside HSV replic up, whose call it bears; fold increase; compound at 10 µM; measured here: primary screen fold increase 10 uM; tested in PC3 cells;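 GFP signal in the first replicate; 1 = infected wells without compound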
Active calls of the source: *; & = joins results of further samples.

CCOC(=O)c1sc(NC(=O)CSc2nnnn2-c2ccc(C)cc2C)nc1C was read as Insulin prom inh -28.6, PKD1 kinase inh 4.2, GALR2 ag -1.9, RGS16-Gao HTS 69.5 and Insulin prom inh cell count 88.3.
Cc1cccc(NC(=O)CN2C(=S)NC(C)(C)CC2C)c1C (stereo unspecified) was read as Insulin prom inh 12.5, HSV replic up inactive, PKD1 kinase inh 10.6, GALR2 ag -0.7, RGS16-Gao HTS 103.2, Insulin prom inh cell count 139.4 and HSV replic up primary fold 0.98.
For COc1ccccc1OCC(=O)NCc1nc(-c2ccccc2)no1 the results were Insulin prom inh 31.6, HSV replic up inactive, PKD1 kinase inh 1.6, RGS16-Gao HTS 101.6, Insulin prom inh cell count 110.0 and HSV replic up primary fold 1.04.
Screening O=c1nc2n(c3c1oc1ccccc13)Cc1ccccc1-2 returned Insulin prom inh 8.7, HSV replic up inactive, PKD1 kinase inh -3.1, GALR2 ag 0.1, RGS16-Gao HTS 98.3, Insulin prom inh cell count 130.8 and HSV replic up primary fold 0.8.
`O=C(Cc1ccc(-n2cccc2)cc1)NC1CCCCC1` gave HSV replic up inactive, PKD1 kinase inh 4.0, GALR2 ag -1.0, RGS16-Gao HTS 100.7 and HSV replic up primary fold 0.97.
For Nc1ccccc1SC1CC(=O)N(c2ccc3c(c2)OCCO3)C1=O (stereo unspecified) the results were HSV replic up inactive, RGS16-Gao HTS 98.7 and HSV replic up primary fold 1.05.
Screening COc1ccc(Cn2nnnc2C(c2ccccc2OC)N2CCC(C(N)=O)CC2)cc1 (stereo unspecified) returned Insulin prom inh -37.8, HSV replic up inactive, PKD1 kinase inh -7.5, GALR2 ag -0.2, RGS16-Gao HTS 100.2, Insulin prom inh cell count 138.2 and HSV replic up primary fold 0.93.
`COC(=O)C(CC(=O)Nc1cc(C)ccc1C)Nc1ccccc1OC` (stereo unspecified) gave HSV replic up inactive, PKD1 kinase inh -4.8, GALR2 ag -1.0, RGS16-Gao HTS 109.0 and HSV replic up primary fold 0.963.
For CCC(c1nnnn1Cc1ccco1)N1CCC(C(N)=O)CC1 (stereo unspecified) the results were Insulin prom inh -9.4, PKD1 kinase inh 1.4, GALR2 ag -2.6, RGS16-Gao HTS 89.2 and Insulin prom inh cell count 110.9.
COc1cccc(C2c3[nH]c4ccccc4c3CCN2Cc2cccc(C)n2)c1 (stereo unspecified) was read as HSV replic up inactive, PKD1 kinase inh 5.8, RGS16-Gao HTS 98.3 and HSV replic up primary fold 1.16.
Screening Nc1nc(SCn2nnc3ccccc3c2=O)n[nH]1 returned Insulin prom inh -50.0, HSV replic up inactive, PKD1 kinase inh 10.1, RGS16-Gao HTS 105.6, Insulin prom inh cell count 52.7 and HSV replic up primary fold 0.94.
For CSC1=N/C(=C\c2ccc(C)cc2)C(=O)S1 the results were Insulin prom inh 11.4, HSV replic up inactive, PKD1 kinase inh 2.6, GALR2 ag -1.3, RGS16-Gao HTS 102.6, Insulin prom inh cell count 72.1 and HSV replic up primary fold 0.98.
For CCN(CC(=O)Nc1ccc(N2CCOCC2)cc1)C(=O)c1ccc(C(F)(F)F)cc1 the results were Insulin prom inh -35.3, HSV replic up inactive, PKD1 kinase inh -0.1, RGS16-Gao HTS 101.0, Insulin prom inh cell count 142.8 and HSV replic up primary fold 1.12.
`Cc1cccc(C)c1NC(=O)C(c1cccs1)N(Cc1ccco1)C(=O)Cn1nnc2ccccc21` (stereo unspecified) gave Insulin prom inh -65.6, HSV replic up inactive, PKD1 kinase inh -8.6, GALR2 ag -0.9, RGS16-Gao HTS 102.7, Insulin prom inh cell count 64.6 and HSV replic up primary fold 0.99.
Screening CCSC1=C(C#N)C(c2ccccc2C)CC(=O)N1 (stereo unspecified) returned Insulin prom inh 58.1, HSV replic up inactive, PKD1 kinase inh 7.6, GALR2 ag -2.4, RGS16-Gao HTS 100.3, Insulin prom inh cell count 105.1 and HSV replic up primary fold 0.99.
Cc1csc(NC(=O)CSc2ncnc3c2cnn3-c2ccccc2Cl)n1 was read as Insulin prom inh 27.8, HSV replic up inactive, PKD1 kinase inh -6.2, GALR2 ag -1.1, RGS16-Gao HTS 91.2, Insulin prom inh cell count 153.5 and HSV replic up primary fold 0.927.
Screening Cc1onc(-c2c(Cl)cccc2Cl)c1NC(=O)NN(C)C returned HSV replic up inactive, RGS16-Gao HTS 106.0 and HSV replic up primary fold 1.26.
`CC(C)C(=O)N(Cc1cc2ccccc2[nH]c1=O)C(C)(C)C` gave Insulin prom inh 27.3, PKD1 kinase inh 11.5, GALR2 ag 0.1, RGS16-Gao HTS 103.7 and Insulin prom inh cell count 66.7.
Screening Cc1ccc2oc(C(F)(F)C(F)F)cc(=O)c2c1 returned HSV replic up inactive, RGS16-Gao HTS 105.7 and HSV replic up primary fold 1.09.
For O=C(C1=C[C@@H](c2ccc(C(F)(F)F)cc2)C[C@@H](OCc2ccc(CO)cc2)O1)N1CCN(Cc2ccccc2)CC1 the results were HSV replic up inactive, PKD1 kinase inh -0.5, RGS16-Gao HTS 98.6 and HSV replic up primary fold 0.76.
Screening O=S(=O)(Nc1ccc2nc(-c3ccco3)[nH]c2c1)c1ccccc1 returned HSV replic up inactive, PKD1 kinase inh 1.5, GALR2 ag -0.1, RGS16-Gao HTS 96.3 and HSV replic up primary fold 1.16.
COc1cccc(C(=O)N2CCN=C2SC)c1 was read as Insulin prom inh -72.7, HSV replic up inactive, PKD1 kinase inh 1.9, RGS16-Gao HTS 108.7, Insulin prom inh cell count 57.9 and HSV replic up primary fold 0.99.
For CC(NC(=O)C(=O)NCCC1=CCCCC1)c1ccccc1 (stereo unspecified) the results were Insulin prom inh -3.3, HSV replic up inactive, PKD1 kinase inh 12.7, GALR2 ag 0.3, RGS16-Gao HTS 102.4, Insulin prom inh cell count 121.0 and HSV replic up primary fold 0.93.
O=C(O)c1ccc(Cl)c(NC(=O)C2CCCN2S(=O)(=O)c2cccc3nsnc23)c1 (stereo unspecified) was read as Insulin prom inh -64.3, HSV replic up inactive, PKD1 kinase inh 1.5, GALR2 ag -0.5, RGS16-Gao HTS 107.5, Insulin prom inh cell count 152.8 and HSV replic up primary fold 0.85.
For O=C(Nc1nc(-c2ccccc2)cs1)C1CCCN(S(=O)(=O)c2ccccc2)C1 (stereo unspecified) the results were HSV replic up inactive, PKD1 kinase inh -8.1, GALR2 ag -0.2, RGS16-Gao HTS 94.4 and HSV replic up primary fold 0.69.
Cc1onc(-c2ccccc2Cl)c1C(=O)NC(=S)Nc1ccc(C(C)C)cc1 was read as HSV replic up inactive, RGS16-Gao HTS 105.1 and HSV replic up primary fold 0.96.
COc1ccc(C(=O)N/N=C2/SCC(=O)N2Cc2ccc3c(c2)OCO3)cc1OC was read as Insulin prom inh 23.1, HSV replic up inactive, PKD1 kinase inh -4.0, GALR2 ag -2.2, RGS16-Gao HTS 98.1, Insulin prom inh cell count 60.7 and HSV replic up primary fold 0.79.
`CCN(CC)C(=O)c1ccc(Nc2nnc(C)c3ccccc23)cc1` gave Insulin prom inh -53.3, HSV replic up inactive, PKD1 kinase inh -9.3, GALR2 ag -1.7, RGS16-Gao HTS 105.3, Insulin prom inh cell count 113.5 and HSV replic up primary fold 0.76.
Screening C=CC(=O)N1C/C=C\C(c2ccc(OC)cc2)N(Cc2ccc(F)cc2)C(=O)C1 (stereo unspecified) returned HSV replic up inactive, RGS16-Gao HTS 107.3 and HSV replic up primary fold 0.87.
N#CC(=C=[N-])c1nc2ccccc2nc1-[n+]1cccc(NC(=O)c2ccccc2)c1 was read as HSV replic up inactive, RGS16-Gao HTS 99.5&102.6 and HSV replic up primary fold 1.02&1.08.

Of the compounds above, two contain a CF3 group.
For CCN(CC(=O)Nc1ccc(N2CCOCC2)cc1)C(=O)c1ccc(C(F)(F)F)cc1 the results were Insulin prom inh -35.3, HSV replic up inactive, PKD1 kinase inh -0.1, RGS16-Gao HTS 101.0, Insulin prom inh cell count 142.8 and HSV replic up primary fold 1.12.
For O=C(C1=C[C@@H](c2ccc(C(F)(F)F)cc2)C[C@@H](OCc2ccc(CO)cc2)O1)N1CCN(Cc2ccccc2)CC1 the results were HSV replic up inactive, PKD1 kinase inh -0.5, RGS16-Gao HTS 98.6 and HSV replic up primary fold 0.76.

Later entries.
O=c1c2ccccc2nc2n1C(CSc1ccc(Br)cc1)CN2 (stereo unspecified) was read as Insulin prom inh 21.9, HSV replic up inactive, PKD1 kinase inh -7.2, GALR2 ag -0.8, RGS16-Gao HTS 100.5, Insulin prom inh cell count 62.5 and HSV replic up primary fold 1.05.
For C(=C\c1nnc2c3ccccc3ncn12)/c1ccccc1 the results were Insulin prom inh 21.4, HSV replic up inactive, PKD1 kinase inh 0.8, GALR2 ag 2.1, RGS16-Gao HTS 104.6, Insulin prom inh cell count 37.2 and HSV replic up primary fold 0.63.
For CCCCc1nnc(NC(=O)Cn2cnc3ccccc3c2=O)s1 the results were HSV replic up inactive, PKD1 kinase inh -5.0, RGS16-Gao HTS 101.8 and HSV replic up primary fold 0.91.
For CN1C(=O)C2(C(C#N)=C(N)Oc3c2oc(CO)cc3=O)c2ccccc21 (stereo unspecified) the results were Insulin prom inh -22.7, HSV replic up inactive, PKD1 kinase inh 5.3, GALR2 ag 0.8, RGS16-Gao HTS 106.6, Insulin prom inh cell count 86.2 and HSV replic up primary fold 0.99.
For CC(NC(=O)c1cnccn1)c1ccc(S(N)(=O)=O)cc1 (stereo unspecified) the results were HSV replic up inactive, RGS16-Gao HTS 101.1 and HSV replic up primary fold 1.03.
Screening Cc1cc(Nc2ccccc2)n(C(=O)c2ccc(N)cc2)n1 returned Insulin prom inh 30.0, HSV replic up inactive, PKD1 kinase inh -6.4, GALR2 ag -2.8, RGS16-Gao HTS 47.6, Insulin prom inh cell count 95.7 and HSV replic up primary fold 0.97.
`Clc1ccc2[nH]c(-c3ccccc3)cc2c1` gave Insulin prom inh 0.0, HSV replic up inactive, PKD1 kinase inh 6.4, GALR2 ag -1.0, RGS16-Gao HTS 101.8, Insulin prom inh cell count 137.6 and HSV replic up primary fold 0.98.
O=C(CN1C(=O)C2CC=C(Cl)CC2C1=O)NCc1ccccc1 (stereo unspecified) was read as HSV replic up inactive, PKD1 kinase inh -0.3, GALR2 ag -1.0, RGS16-Gao HTS 106.3 and HSV replic up primary fold 0.91.
`CS(=O)(=O)N(CC(=O)Nc1ccccc1Sc1ccccc1)C1CCCCC1` gave Insulin prom inh -62.9, HSV replic up inactive, PKD1 kinase inh -4.9, GALR2 ag -1.5, RGS16-Gao HTS 98.8, Insulin prom inh cell count 103.5 and HSV replic up primary fold 0.91.
Screening CCCNC(=O)Nc1nc2ccccc2s1 returned HSV replic up inactive, RGS16-Gao HTS 99.5 and HSV replic up primary fold 0.83.
Cc1nc2ccc(NC(=O)N3CCSCC3)cc2nc1C was read as Insulin prom inh 77.1*, HSV replic up inactive, PKD1 kinase inh 4.5, GALR2 ag -1.4, RGS16-Gao HTS 106.8, Insulin prom inh cell count 184.2* and HSV replic up primary fold 1.04.
Screening CC(C)(C)c1ccc(C(=O)N2CCCCCC2=O)cc1 returned Insulin prom inh inactive, HSV replic up inactive, PKD1 kinase inh -2.2, GALR2 ag -1.7, RGS16-Gao HTS 105.7, Insulin prom inh cell count 60.1 and HSV replic up primary fold 0.94.
CCOC(=O)/C=C/C(=O)N1CCN(C(=O)/C=C/C(=O)OCC)CC1 was read as HSV replic up inactive, RGS16-Gao HTS 97.9 and HSV replic up primary fold 1.01.
Screening Cn1cnnc1SCC(=O)Nc1ccc2nc(SCc3ccccc3F)sc2c1 returned Insulin prom inh -3.3, HSV replic up inactive, PKD1 kinase inh -4.2, GALR2 ag -0.1, RGS16-Gao HTS 98.8, Insulin prom inh cell count 127.5 and HSV replic up primary fold 0.88.
For C=C(C)CNC(=O)CCc1nnc(Cc2cccc(C(F)(F)F)c2)o1 the results were Insulin prom inh -40.0, HSV replic up inactive, PKD1 kinase inh 2.7, RGS16-Gao HTS 102.9, Insulin prom inh cell count 99.8 and HSV replic up primary fold 1.02.
For COc1ccc(C/C(N)=N/OC(=O)C(c2ccccc2)c2ccccc2)cc1OC the results were Insulin prom inh 12.9, HSV replic up inactive, PKD1 kinase inh 4.1, GALR2 ag -1.3, RGS16-Gao HTS 102.5, Insulin prom inh cell count 103.8 and HSV replic up primary fold 0.95.
For COc1cc(OC)c(N(C)S(=O)(=O)c2cccc(C(=O)OCC(=O)c3c[nH]c4ccccc34)c2)cc1Cl the results were Insulin prom inh -35.7, HSV replic up inactive, PKD1 kinase inh 3.0, GALR2 ag 0.3, RGS16-Gao HTS 23.6*, Insulin prom inh cell count 78.6 and HSV replic up primary fold 0.91.
Screening Cc1cc(C)nc(NC(N)=S)n1 returned HSV replic up inactive, RGS16-Gao HTS 72.9 and HSV replic up primary fold 1.04.

Screening results as filed in PubChem BioAssay.
